Bioassay records: PubChem, PCMD
RmlCD inh mix – inhibitors of RmlC and RmlD coupled enzymes. actives 0.39% (n = 110,000). RmlC/RmlD coupled enzyme inhibition, 384-well mixture HTS. AID 1532. inhibition, % at 5.5 µM; in the data active means inhibition above about 30%, passing the limit was not always enough; only retested compounds are shown here; further: strong numbers were not always called active
RmlCD inh mix retest – further read-out of RmlCD inh mix, marked with its call; inhibition, %; measured here: mean retest inhibition;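 single compounds in two wells; values far above 100% likely come from compound fluorescence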
Starred values were filed as active, the others as inactive; i = inactive; / = no result given.

Start of the data: the first 4 compounds as a preview:
SMILES	RmlCD inh mix	RmlCD inh mix retest
O=C(Nc1ccc(Br)cc1F)C1CCCN(S(=O)(=O)c2cnc[nH]2)C1 (stereo not given)	83.6	-3.5
Cc1ccc(N2CC(C(=O)OCc3ccccc3)CC2=O)cc1 (stereo not given)	68.4	-8.6
CCCc1[nH]n(-c2ccc([N+](=O)[O-])cc2)c(=O)c1C=NCCc1c[nH]c2ccccc12	41.5	6.3
CN(Cc1ccccc1)C(=O)Cn1cccc1C(=O)c1ccccc1	60.2	2.9

This part in full, from the first entry:
SMILES	RmlCD inh mix	RmlCD inh mix retest
O=C(Nc1ccc(Br)cc1F)C1CCCN(S(=O)(=O)c2cnc[nH]2)C1 (stereo not given)	83.6	-3.5
Cc1ccc(N2CC(C(=O)OCc3ccccc3)CC2=O)cc1 (stereo not given)	68.4	-8.6
CCCc1[nH]n(-c2ccc([N+](=O)[O-])cc2)c(=O)c1C=NCCc1c[nH]c2ccccc12	41.5	6.3
CN(Cc1ccccc1)C(=O)Cn1cccc1C(=O)c1ccccc1	60.2	2.9
CCOc1cc(S(=O)(=O)Nc2ccccc2CC)ccc1Cl	95.7	1.0
Cc1ccc2c(c1)COc1c3ccc(C(=O)N4CCOCC4)cc3nn1-2	85.0	7.2
Cn1cccc1C1NC(=O)c2c(sc3c2CCC(C(C)(C)C)C3)N1 (stereo not given)	72.1	14.9
O=c1oc2cc(O)ccc2cc1-c1ccc(F)cc1	136.2*	118.5*
COC(=O)c1ccc(Cl)c(NC(=O)NC2CCCCC2)c1	31.5	-6.5
CC(C)C(=O)N(Cc1ccccc1)c1ccccn1	38.6	-7.5
CN(C)S(=O)(=O)NCc1ccc2c(c1)OCO2	85.4	-6.6
O=C(CN1CCN(C(=O)N2CCCCC2)CC1)Nc1ccc(F)cc1	123.8	0.3
C=CCn1c(SCC(=O)c2cccs2)nc2sc(CC)cc2c1=O	47.8	-6.8
CCOC(=O)c1nn(-c2ccccc2C)c2nc(CC(C)C)c(C#N)c(=O)n12	34.6	-1.5
CCOc1ccc(Cl)cc1S(=O)(=O)n1cnc2cc(C)c(C)cc21	156.4	-0.6
CCCC/C(O)=C/c1nc2ccccc2[nH]c1=O	32.4	6.3
O=C(Nc1ccccc1)c1ccc(OC(=O)c2cc3ccccc3o2)cc1	67.0	23.6
COC(=O)c1ccc2c(c1)C(C)(C)C(/C=C/c1ccc(OC)c(OC)c1OC)=[N+]2C	45.4*	172.9*
COc1ccc(C(C)=O)cc1COC(=O)c1c(C)noc1C	50.4	2.8
O=C(NCc1ccco1)C1CCCN1C(=O)NCc1ccccc1 (stereo not given)	172.1	-17.6
Cc1nc(N2CCN(C(=O)c3ccco3)CC2)c2c3c(sc2n1)CCCC3	38.1	2.7
CCOc1ccc(Nc2oc(-c3cccc(Cl)c3)nc2C#N)cc1	35.6*	/
COCCOC(=O)c1c(N)n(Cc2ccco2)c2nc3ccccc3nc12	56.6	27.4
Cc1ccc(-n2c(=O)c(C#N)cc3c(=O)n4ccccc4nc32)cc1C	79.3	56.5
CCOC(=O)N1CCN(C(=O)CCSc2ccccc2)CC1	61.2	5.1
C=CCNc1oc(-c2cccs2)nc1C#N	107.8*	67.8*
CCO[C@@H]1OC(C(=O)N2CCN(Cc3ccc4c(c3)OCO4)CC2)=C[C@H](c2coc3ccccc3c2=O)[C@H]1CCCO	35.1	-6.3
COc1ccc(O/C(=N\S(=O)(=O)c2ccccc2)c2ccccc2)cc1	34.0	6.1
O=C(N/N=C/c1ccc2ccccc2c1)c1ccc(COc2ccc3c(c2)CCC3)o1	67.7	20.9
COCCCn1c(SCc2nnc(-c3ccc(OC)c(OC)c3)o2)nnc1-c1ccncc1	37.3	5.2
O=C(Cc1ccc(-n2c(=O)[nH]c3ccccc3c2=O)cc1)N1CCN(c2cccc(Cl)c2)CC1	43.4	21.7
O=c1ccn(-c2cccc(C(F)(F)F)c2)nc1-c1ccn(-c2ccccc2)n1	30.9	-3.4
COc1ccc(NC(=O)CSc2nc(NS(=O)(=O)c3ccc(C)cc3)cc(=O)[nH]2)cc1	35.3	-7.4
CN1CCCc2cc(C#N)c(=O)[nH]c21	48.2*	112.8*
CC(=O)N1CCc2cc(S(=O)(=O)NCCC(=O)N3CCN(c4ccccn4)CC3)ccc21	112.5	9.6
COc1ccc(-c2c[n+]3c4n2CCCCC4=C(c2ccccc2)C3)cc1	91.4*	78.8*
CCOCCCNc1ccc(-c2ccccc2)nn1	55.9	-11.3
CC(=O)Nc1nc(CC(C)C)cc(-c2ccco2)c1C#N	49.9	17.1
N#Cc1cc(-c2ccccc2)c[nH]c1=O	39.4	-4.6
c1ccc(-c2ccnc3nc(N4CCN(c5ccccc5)CC4)nn23)cc1	53.0	-9.6
COc1cccc(-n2nnnc2SCC(=O)c2cc(OC)ccc2OC)c1	38.2*	65.3*
COc1cc(C(=O)NCc2cccc3ccccc23)cc(Cl)c1OC	i	0.3
C=C(C)CSc1nnc(-c2cc(OC)c(OC)c(OC)c2)n1N	103.9	-11.7
Cc1cccc(N2C(=O)CC(N3CCN(C(=O)c4ccccc4)CC3)C2=O)c1 (stereo not given)	83.2	2.1
O=C(NCCCNCc1ccccc1)c1ccccn1	54.9	-13.3
Cc1ccc2c(CC(=O)OCn3nnc4ccccc4c3=O)coc2c1	51.8	-1.4
CC(Oc1ccc(Cl)cc1)C(=O)OCC(=O)Nc1ncc(Cl)cc1Cl (stereo not given)	85.3	-9.4
CC(C)CCNC(=O)CN(C(=O)CCC(=O)Nc1ccccn1)c1ccc2c(c1)OCCO2	53.4	4.4
O=C1CCCCCN1CP(=O)(O)CCc1ccccc1	43.0	1.8
CCC(C)[C@@H](CN(N=O)[C@@H](Cc1ccccc1)CN(C)N=O)N(CCc1ccccc1)N=O (stereo not given in full)	68.2	-4.5
COc1cccc2cc(C(=O)N3CCN(C(=O)c4ccco4)CC3)c(=O)oc12	39.4	-6.4
Cc1nc2ccccc2c(=O)n1-c1ccc(F)cc1	38.5	0.6
Cn1nc(C(=O)Nc2cccnc2)c2ccccc2c1=O	45.1	-3.0
CC1(C)COC(c2cccn2Cc2ccc(F)cc2Cl)=N1	61.1	-1.2
O=C(O)C1CCCCC1C(=O)NCCc1cccc(Cl)c1 (stereo not given)	33.4	3.9
CCOC(=O)c1cc2n(n1)C(C(F)(F)F)CC(C)N2 (stereo not given)	43.2	6.7
COc1ccccc1NC(=S)NNC(=O)c1ccc(Cl)cc1Cl	120.8	4.2
N#CCCN1CCN(C(=S)c2ccc(-c3ccc(Cl)cc3)o2)CC1	39.6	-6.6
Cc1cc(SCC(=O)N2CCC(c3noc4ccc(F)cc34)CC2)nc2ccccc12	105.0	-0.7
Cc1cc(C)nc(NS(=O)(=O)c2ccc(Br)cc2)n1	38.8	1.3

(continued)
SMILES	RmlCD inh mix	RmlCD inh mix retest
CC1(C)CC(=O)c2c(-c3cccnc3)n[nH]c2C1	58.0	-4.9
O=c1[nH]c(N2CCN(Cc3ccc4c(c3)OCO4)CC2)nc2c1CCC2	46.5	-5.7
CC(=O)Nc1ccc(Nc2ncnc3c2cnn3-c2cccc(C)c2)cc1	39.5	2.1
Cc1cc(=O)[nH]c2c(C)c(N)ccc12	58.7*	49.0*
NCC(CC(=O)O)c1ccc(Cl)cc1 (stereo not given)	31.1	-15.6
Clc1ccccc1-c1nnc2sc(-c3ccc4c(c3)OCO4)nn12	67.0	-16.0
C#Cc1ccc([C@@H]2C=C(C(=O)N3CCOCC3)O[C@H](OCC)[C@H]2CCCO)cc1	32.4	-8.8
COc1ccc(S(=O)(=O)NC(CC(=O)NCCc2ccccc2)c2ccco2)cc1 (stereo not given)	34.7	-8.3
O=S1(=O)CCN=C2SC3=C(CCCC3)N21	93.9	-4.3
COc1cc(/C=N/NC(=O)c2cncc(Br)c2)ccc1OC(=O)c1ccc2c(c1)OCO2	50.9	34.4
CSc1ccc(-c2nc(CSCC(=O)N3CCOCC3)c(C)o2)cc1	54.7	8.6
CCOC(=O)c1c(NC(=O)CSc2nnc3c(n2)[nH]c2ccccc23)sc2c1CCN(C)C2	35.0	17.7
O=C(CS(=O)(=O)c1ccc(Cl)c(Cl)c1)Nc1ccccc1Cl	37.9	2.9
OCc1cn(-c2ccccc2)nc1-c1ccc2c(c1)OCCO2	98.7	-9.8
COc1ccc(S(=O)(=O)NC(C)C(=O)Nc2ccccc2F)cc1 (stereo not given)	i	-9.9
O=c1cccc2n1Cc1cc3ccccc3nc1-2	55.5*	151.4*
O=C1CC(C(=O)Nc2ccccc2)C2(CCCC2)O1 (stereo not given)	52.8	-12.8
Cc1ccc(S(=O)(=O)NC(=O)Nc2ccccc2F)cc1	46.7	5.9
COc1ccc2c(-c3ccccc3)cc3nnnn3c2c1	118.7	8.6
CC1(C)CCCN(C(=O)c2coc(=O)c(Br)c2)C1	54.0*	88.4*
CN(C(=O)C1CCOC1)c1nnc(-c2ccncc2)s1 (stereo not given)	48.1*	46.1*
Cc1cccc(NC(=O)Cc2coc3ccc4ccccc4c23)n1	38.4	-1.5
c1ccc(CNc2cnccn2)cc1	35.9	9.0
Cc1cnc(NC(=O)CSc2nc3ccccc3s2)s1	120.8	-11.0
O=C1CCC(=O)N1c1ccc(CSc2nc3ccccc3[nH]2)cc1	89.2	-8.7
O=C(NCc1ccco1)C(c1ccc(F)cc1)N(CC1CCCO1)C(=O)Cn1nnc2ccccc21 (stereo not given)	31.3	-5.7
Cc1cc(NC(=O)COC(=O)COc2cccc3c2OC(C)(C)C3)no1	97.1	2.7
O=C(NCCN1CCOCC1)c1cc2ccccc2o1	161.0	1.1
O=C(NCC(c1cccnc1)N1CCN(c2ccc(F)cc2)CC1)c1cccc(Cl)c1 (stereo not given)	113.9	21.4
CCN1CCN(C(=O)CN(CC)S(=O)(=O)c2ccc(Cl)cc2)CC1	85.7	-7.8
Cc1onc(-c2ccccc2)c1C(=O)Nc1nnc(N(C)Cc2ccccc2)s1	103.9	3.9
NS(=O)(=O)c1ccc(NC(=O)CSc2nnc(Cc3cccs3)n2-c2ccccc2)cc1	42.5	-12.4
COc1cc(-c2nc3ccccn3c2/N=C/c2cc(OC)c(OC)c(OC)c2)ccc1O	43.6*	119.3*
O=C(NCC(c1cccnc1)N1CCOCC1)c1ccco1 (stereo not given)	37.2	11.9
COCCn1c(SCC(=O)N2CCC(C)CC2)nc2ccccc2c1=O	44.2	-8.3
Cc1ccc(NC(=O)CSc2nc3ccccc3c(=O)n2CCCN2CCCCC2)cc1C	37.8	1.2
CCC(Sc1nc(-c2ccccc2)c(C#N)c(=O)[nH]1)C(=O)Nc1cc(C)on1 (stereo not given)	114.1	-15.5
CC(=O)OCC(=O)[C@H]1CC[C@H]2[C@@H]3CCC4=CC(=O)CC[C@]4(C)[C@H]3CC[C@]12C	104.7	-4.1
Cc1ccc(O)c(NC(=S)NC(=O)c2ccc(-c3ccc(Cl)cc3)o2)c1	166.9	54.3
Cc1ccc(-c2nn(-c3ccccc3)cc2CN(Cc2ccccc2)C(=O)c2ccco2)o1	177.4	-15.7
CC/C(=N/Nc1ccccc1)c1cnnc(-c2ccccc2)n1	86.3	-9.8
CC(CNC(=O)C1CCCCC1C(=O)O)c1ccccc1 (stereo not given)	105.9	-7.5
Cc1ccc(/C(N)=N/OC(=O)c2ccc(F)cc2)cc1	39.2	-8.1
CC(=O)Oc1ccc(Oc2ccc(-c3noc(C)n3)cc2)cc1	35.0	4.1
CCOC(=O)Nc1ccc2c(CN3C(=O)NC(CC)(CC)C3=O)cc(=O)oc2c1	38.5	26.9

Laid out differently: entries from further up.
Order of values: RmlCD inh mix | RmlCD inh mix retest
- CCN1CCN(C(=O)CN(CC)S(=O)(=O)c2ccc(Cl)cc2)CC1
→ 85.7 | -7.8
- CN1CCCc2cc(C#N)c(=O)[nH]c21
→ 48.2* | 112.8*
- O=C(N/N=C/c1ccc2ccccc2c1)c1ccc(COc2ccc3c(c2)CCC3)o1
→ 67.7 | 20.9
- COCCCn1c(SCc2nnc(-c3ccc(OC)c(OC)c3)o2)nnc1-c1ccncc1
→ 37.3 | 5.2
- CCOC(=O)Nc1ccc2c(CN3C(=O)NC(CC)(CC)C3=O)cc(=O)oc2c1
→ 38.5 | 26.9
- CCOc1ccc(Cl)cc1S(=O)(=O)n1cnc2cc(C)c(C)cc21
→ 156.4 | -0.6

Further compounds.
SMILES	RmlCD inh mix	RmlCD inh mix retest
COc1ccc(-c2oc3ncn4nc(COc5ccccc5)nc4c3c2-c2ccc(OC)cc2)cc1	117.4*	/
CCCn1nnnc1NCc1ccccc1OCc1ccc(F)cc1	105.8	-9.1
CC(C)NS(=O)(=O)c1ccc(OCC(=O)Nc2ccc(F)cc2F)cc1	32.1	-9.7
CC(C)CNC(=O)c1c(N)n(Cc2ccco2)c2nc3ccccc3nc12	44.7	21.4
CCN(CC)c1ccc(NC(=O)c2cccnc2)cc1	79.0	-2.1
CN1CCCC(C(=O)c2ccccc2)C1 (stereo not given)	30.2	-7.4
N#CCSCC(=O)Nc1ccccc1	52.7	-12.0
CCN(CC)CCCN(Cc1cc2cc3c(cc2[nH]c1=O)OCCO3)C(=O)Nc1ccc(F)cc1	45.6	12.5
CCOC(=O)C1=C(C)Nc2ncnn2C1c1cccs1 (stereo not given)	53.4	-10.8
CCSc1nnc(NC(=O)c2csc3c2CCC(C)C3)s1 (stereo not given)	55.4	6.3
CNC(=O)c1ccc(-c2ccc(OC)cc2)s1	85.3*	/
CCCc1cc(=O)oc2cc(OCC(=O)OC)cc(OCC(=O)OC)c12	31.3	37.3
c1nc(NCCN2CCOCC2)c2c3c(sc2n1)CCCCC3	34.8	-8.4
CCN(CC)CCCN1C=C2C(=O)C(C)(OC(=O)C3CCCC3)C(=O)C=C2C=C1c1ccsc1 (stereo not given)	150.5	-21.4
CS(=O)(=O)N1CCC(C(=O)Nc2ccccc2F)CC1	34.8	-6.7
O=C(Cn1cnc2c(nnn2-c2ccccc2)c1=O)N1CCC(Cc2ccccc2)CC1	69.2	9.3
C=CCNc1oc(/C=C/c2ccccc2)nc1C#N	101.5	47.8
S=c1nc[nH]c2c1[nH]c1ccccc12	67.0	-5.2
COC(=O)Cc1c(C)c2ccc(O)c(CN3CCCC(C)C3)c2oc1=O (stereo not given)	95.8*	79.3*
O=C(O)CC1SC(=O)N(Cc2ccccc2)C1=O (stereo not given)	79.2	-4.8
O=C1Nc2ccccc2C12OCCO2	33.4	-4.2
Cc1cc(-n2c(C)cc(C(=O)COc3ccc4ccc(=O)oc4c3)c2C)no1	31.5	15.5

Some of the compounds tested; the hit share may differ from the screen's.
